# Screening data as filed in PubChem BioAssay.
# VDR inh: Inhibitors of the vitamin D receptor (VDR): qHTS | 400,000 compounds, 0.93% hits | Potency, µM, without a hit: max response, negative = inhibition, actives largely listed as inhibitors | VDR-SRC2-3 peptide fluorescence polarization, 2 h | Vitamin D3 receptor (Homo sapiens), P11473; active = well fitted inhibition curve with a large enough effect; inconclusive = small, poorly fitted or top-dose-only effect, or another doubt; inactive = no such curve, though single readings can be large or run the other way; also: series mostly up to about 120 µM
# Target sequence (P11473 whole entry, looked up): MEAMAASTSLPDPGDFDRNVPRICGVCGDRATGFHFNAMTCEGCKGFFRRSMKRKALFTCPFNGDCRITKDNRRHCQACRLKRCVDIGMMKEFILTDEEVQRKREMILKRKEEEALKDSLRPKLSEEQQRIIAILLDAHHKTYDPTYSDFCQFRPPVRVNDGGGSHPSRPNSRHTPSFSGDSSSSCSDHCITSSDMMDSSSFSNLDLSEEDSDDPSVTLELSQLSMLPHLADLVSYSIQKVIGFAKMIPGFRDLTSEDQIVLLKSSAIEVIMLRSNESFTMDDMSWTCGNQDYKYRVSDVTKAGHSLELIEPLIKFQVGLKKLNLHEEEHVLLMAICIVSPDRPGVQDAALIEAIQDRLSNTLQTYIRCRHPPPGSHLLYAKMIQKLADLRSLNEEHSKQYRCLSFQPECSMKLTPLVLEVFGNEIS
#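 Two reagent solutions held at 4 deg C in the dark were dispensed, compounds pinned at 23 nl, and the mixture incubated 2 h at room temperature. Read-out: fluorescence polarization of VDR–SRC2-3 peptide binding.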
# Numbers without * were called inactive; ? = inconclusive; & = joins results of further samples; [ ] = another dose, or the depositor's remark. % is scaled to controls: 0 for no effect and ±100 for the full control effect; potency is read from the fitted curve at half-maximal effect. An excerpt; count on the stated rates, not on these rows.
mol | VDR inh
COc1ccc(-c2ccnc3nc(N4CCN(c5ccccc5)CC4)nn23)cc1 | -8%
Nc1c2c(=O)oc(-c3ccccc3)cc2nn1-c1ccccc1 | -5%
COc1cc(C2NC(=S)NC(C)=C2C(=O)c2ccccc2)ccc1O (stereo unspecified) | 1%
Cc1ccc(CN2CCN(C3CCCC3)C(CCO)C2)s1 (stereo unspecified) | -8%
COc1ccc2c(c1)[nH]c1c(=O)n(/N=C/c3ccc(OC)c(CN4CCCCC4)c3)cnc12 | -6%
Cc1ccc(CC(=O)NCc2ccc3c(c2)OCO3)cc1 | 7%
CC(=O)c1sc(-c2ccccc2)cc1NS(=O)(=O)c1ccccc1 | 4%
CCc1ccc(CNC(=O)CCC(=O)n2ncc3cc(C)ccc32)cc1 | -5%
CC(=O)Nc1ccc(Oc2cnccn2)cc1 | -18%
C=CCSc1nnc2c(n1)OC(c1c(C)[nH]n(-c3ccccc3)c1=O)Nc1ccccc1-2 (stereo unspecified) | 15%
CCOc1ccccc1N1C(=O)CC(N(O)c2ccccc2)C1=O (stereo unspecified) | -9%
O=C1CNC(=S)N1CCCc1ccccc1 | -5%
COc1ccc(OCC(O)Cn2c(=N)n(CCN3CCCCC3)c3ccccc32)cc1 (stereo unspecified) | -11%
Cc1ccc(S(=O)(=O)N2CCCC2C(=O)O)cc1 (stereo unspecified) | 18%
COc1ccc(-c2cn3nc(N4CCC(C(=O)Nc5cccc(C)c5C)CC4)sc3n2)cc1 | 17%
O=C(CC1C(=O)NCCN1C/C=C/c1ccccc1)NCCc1cnccn1 (stereo unspecified) | 9%
CN1CCN(c2ncc3ncc(=O)n(CCc4ccccc4)c3n2)CC1 | 6%
CCN1/C(=C/c2ccc3cccc(C)c3[n+]2CC)Sc2ccccc21 | -3%
COc1ccc(NC(=O)CSc2nncs2)cc1OC | -8%
O=C(CC1C=Cc2ccccc2N1C(=O)c1ccccc1)c1ccccc1 (stereo unspecified) | 3%
COc1cccc(/C=C2/CN(C)CC3=C2OC(N)=C(C#N)C3c2cccc(OC)c2)c1 (stereo unspecified) | 37%[activator]
COc1cccc(C(=O)N2CCC(n3nccc3NC(=O)CCOc3ccccc3)CC2)c1 | 20%
O=C(CCC(=O)Nc1ccc(F)cc1)N/N=C/c1ccc(F)cc1 | 7%
CC(OC(=O)[C@@H](NC(=O)OCc1ccccc1)C(C)C)C(=O)Nc1ccc(N2CCOCC2)cc1 (stereo partly specified) | 20%
Cc1cc(-n2ccc(=O)[nH]c2=O)nc(-c2ccccc2)n1 | 1%
O=C(CN1C(=O)S/C(=C\c2cccc(Cl)c2)C1=O)NCCCn1ccnc1 | -4%
CC(C)(C)n1nnnc1C(c1ccccc1)N1CCc2ccccc2C1 (stereo unspecified) | -15%
CCN(CC)S(=O)(=O)c1ccc(C(=O)NCc2ccc3c(c2)OCO3)cc1 | 8%
CC1CCCCN1CCNC(=O)C1CC(=O)N(c2ccc(F)c(Cl)c2)C1 (stereo unspecified) | 4%
CN(C(=O)c1ccc(N2CCCCC2)c([N+](=O)[O-])c1)C1CCS(=O)(=O)C1 (stereo unspecified) | 1%

# 6 entries out of the list above, arranged by their value in VDR inh, low to high.
mol | VDR inh
CC(=O)Nc1ccc(Oc2cnccn2)cc1 | -18%
COc1ccc(OCC(O)Cn2c(=N)n(CCN3CCCCC3)c3ccccc32)cc1 (stereo unspecified) | -11%
COc1ccc(NC(=O)CSc2nncs2)cc1OC | -8%
O=C1CNC(=S)N1CCCc1ccccc1 | -5%
CC1CCCCN1CCNC(=O)C1CC(=O)N(c2ccc(F)c(Cl)c2)C1 (stereo unspecified) | 4%
COc1ccc(-c2cn3nc(N4CCC(C(=O)Nc5cccc(C)c5C)CC4)sc3n2)cc1 | 17%

# Three structures out of the list, ordered by formula weight, rising:
mol | VDR inh
O=C(CC1C(=O)NCCN1C/C=C/c1ccccc1)NCCc1cnccn1 (stereo unspecified) | 9%
C=CCSc1nnc2c(n1)OC(c1c(C)[nH]n(-c3ccccc3)c1=O)Nc1ccccc1-2 (stereo unspecified) | 15%
COc1ccc(-c2cn3nc(N4CCC(C(=O)Nc5cccc(C)c5C)CC4)sc3n2)cc1 | 17%

# Additional structures:
mol | VDR inh
Cc1ccc(-c2csc(=S)[nH]2)cc1 | ?
COc1cc2c(cc1NC(=O)CSCC(=O)O)oc1ccccc12 | 4%
CC(C)(C)NC(=O)Cc1ccc(Cl)c(Cl)c1 | 14%
O=C(N/N=C\c1ccc2c(c1)OCO2)c1ccc(Cn2cc(Br)c([N+](=O)[O-])n2)o1 | 1%
Cc1cccc(CN2CCC(C(N)=O)CC2)c1 | 5%
COc1ccc(S(=O)(=O)Nc2cccc3c2O[C@H](CN(C)Cc2ccccc2)[C@@H](C)CN([C@H](C)CO)C3=O)cc1 | -10%
O=C(CSc1nc2ccccc2n1Cc1cccc(F)c1)NCc1ccccc1 | 8%
CC1CCc2nc(-c3cc4ccc(O)cc4oc3=O)sc2C1 (stereo unspecified) | -18%
O=C(c1ccc2ccccc2n1)N1CCN(Cc2c(F)cccc2Cl)CC1 | 7%
Cc1cccc(NC(=O)c2cccc(C(=O)Nc3cccc(C)c3)n2)c1 | -25%
CCCOC(=O)c1c(NC(=O)CSc2nc(-c3ccco3)cc(C(F)(F)F)n2)sc(C(=O)OC)c1C | 14%
COc1ccc(-c2cc(=O)c3ccccc3[nH]2)cc1 | 0%&-25%
O=c1c(-c2ccccc2)coc2c(CN3CCCC3)c(O)ccc12 | 5%
CCOC(=O)c1cnc2ccc(OCC)cc2c1NCc1cccnc1 | 6%
Cc1ccc(Cn2c(C)c3cnn(CC(=O)N4CCN(c5ccc(F)cc5)CC4)c(=O)c3c2C)cc1 | 9%
CCOc1ccc(OCC)c(NC(=O)CSc2nc3ccccc3c(=O)n2C)c1 | 12%
CCCC1=[N+](CC(=O)c2ccc(Br)cc2)CCn2cccc21 | 31%[activator]
COc1ccccc1CN1Cc2cccc3c2[C@@H](CC1=O)[C@H](O)[C@H](O)C3 | -10%
O=S(=O)(c1cccc2cccc(Cl)c12)N1CCCC1 | 4%
CCn1ccnc1CNC(=O)CC1C(=O)NCCN1CCCc1ccccc1 (stereo unspecified) | 9%
Cc1ccc(CNS(=O)(=O)c2cc(F)ccc2CN2C(=O)c3cccnc3C2=O)o1 | -11%
COc1ccccc1C(C)NCC(=O)Nc1ccccc1C(F)(F)F (stereo unspecified) | -5%
COc1ccc2c(c1)c1c(c(=O)n(-c3ccccc3)c(=O)n1CC(=O)Nc1ccc(C)c(C)c1)n2C | 11%
CC1CCCN(CCCNC(=O)C2CC(=O)N(CCc3ccccc3)C2)C1 (stereo unspecified) | -12%
N#Cc1ncc(C(F)(F)F)cc1Sc1ccc(N)cc1 | -8%
CCn1c(=O)c([N+](=O)[O-])c(NCCN(C)C)c2ccccc21 | 15%
CCn1c(C)nc2cc(C(=O)N/N=C/c3cccc(OC)c3O)ccc21 | 4%
O=C(COC(=O)c1cc(=O)[nH]c2ccccc12)NCc1cccs1 | -8%
CSc1ccc(CNC(=O)C2CCN(c3nc4ccccc4nc3C(F)(F)F)CC2)cc1 | 15%
CN(C)C(=O)CSc1nc2ccccc2c(=O)[nH]1 | 2%

# For reference, 3 of the compounds above:
mol | VDR inh
O=C(COC(=O)c1cc(=O)[nH]c2ccccc12)NCc1cccs1 | -8%
CSc1ccc(CNC(=O)C2CCN(c3nc4ccccc4nc3C(F)(F)F)CC2)cc1 | 15%
CN(C)C(=O)CSc1nc2ccccc2c(=O)[nH]1 | 2%

# Retrieved by structure from above, 3 records:
mol | VDR inh
COc1ccccc1C(C)NCC(=O)Nc1ccccc1C(F)(F)F (stereo unspecified) | -5%
COc1cc(C2NC(=S)NC(C)=C2C(=O)c2ccccc2)ccc1O (stereo unspecified) | 1%
CCn1ccnc1CNC(=O)CC1C(=O)NCCN1CCCc1ccccc1 (stereo unspecified) | 9%

# The list continues.
mol | VDR inh
Cc1ccccc1CN1CCN(C(=O)c2cccc(F)c2)CC1 | -5%
O=S(=O)(N/N=C1/CC(c2ccccc2)Oc2ccccc21)c1ccccc1 (stereo unspecified) | -3%
C[C@]12C(=O)N(c3ccc(Br)cc3)C(=O)N1[C@@H]1c3ccccc3OC[C@@H]1[C@H]2c1ccccc1 | 1%
O=C1c2ccccc2C(=O)N1c1ccccc1S(=O)C(F)(F)F (stereo unspecified) | 5%
Cc1cc(C(=O)NC2CCCc3c2cnn3-c2cccc(C)c2C)n(C)n1 (stereo unspecified) | 10%
O=C(CSc1nnc(-c2ccco2)n1CC1CCCO1)c1ccccc1 (stereo unspecified) | 3%
O=C(OCCCN=C1NS(=O)(=O)c2ccccc21)c1cccs1 | -9%
CC(C)C(=O)Nc1ccc(N2CCN(S(C)(=O)=O)CC2)cc1 | -6%
Cc1nnc(SC2CC(=O)N(c3ccccc3)C2=O)s1 (stereo unspecified) | 15%
CCSc1nnc(NC(=O)c2cc(-c3ccc(C)c(C)c3O)n[nH]2)s1 | -23%
CC(C)NC(=S)N1CCn2c(nc3ccccc32)C1 | 15%
CCOc1ccccc1NC(=O)Nc1ccc(Br)cn1 | 6%
Cc1cc(NC(=O)c2ccco2)ccc1NC(=O)Cc1cccs1 | -19%
COc1ccccc1N(CC(=O)N1CCN(c2ccc(F)cc2)CC1)S(=O)(=O)c1ccc(C)cc1 | -7%
C/C(=N\NC(=O)Cc1ccc([N+](=O)[O-])cc1)c1cccnc1 | 5%
CN1C(=O)N(C)C2C1NC(=O)N2C (stereo unspecified) | -12%
Cc1ccc(NC(=O)CN(C)C(=O)c2ccc(NS(=O)(=O)c3cccc([N+](=O)[O-])c3)cc2)cc1 | 8%
Cc1cc(NC(=O)CN2CCN(S(=O)(=O)c3ccc(Cl)cc3)CC2)no1 | -3%
Cc1cc(NS(=O)(=O)c2ccc(C(C)C)cc2)no1 | -7%
CCC(C)NC(=O)c1ccc(CSc2nc3ccncc3n2Cc2ccc(F)cc2)cc1 (stereo unspecified) | -4%
O=C(O)c1cc2ccccc2c2cc(Br)ccc12 | -19%
Cn1c(-c2cccc3ccccc23)n[nH]c1=S | -2%
CCOc1ccc(N2CC(C(=O)NCCN3C(=O)S/C(=C\c4cccnc4)C3=O)CC2=O)cc1 (stereo unspecified) | 4%
CCOC(=O)Cc1cc(OC)c(OC)cc1Cc1cc(OC)c(OC)cc1CC(=O)OCC | -11%
CCCNC(=O)C(Cc1ccccc1F)NC(=O)c1ccccn1 (stereo unspecified) | -23%
COc1cccc(C2=CC(=O)C[C@H](c3ccc(F)cc3)C2)c1 | -21%
O=C(CCCCCBr)N1CCC(CC2CC(c3ccc(Cl)cc3)=NO2)(C(=O)NCC2CCCCC2)CC1 (stereo unspecified) | -8%
Cc1cccc(N2CCN(C(=O)CN3C(=O)COc4ccc(S(=O)(=O)N5CCCC5)cc43)CC2C)c1 (stereo unspecified) | 0%
CCCc1c(-c2ccc(O)cc2)nn(-c2ccc(O)cc2)c1-c1ccc(O)cc1 | ?
Cc1cc(C)n(CC(=O)N2CCCC(C(=O)c3cccc(OC(C)C)c3)C2)n1 (stereo unspecified) | -15%
COc1ccc(N2CC(C(=O)N[C@@H](C)C(=O)NC3CCCCC3)CC2=O)cc1 (stereo partly specified) | -4%
COc1ccc(CNC(C)C2COc3ccccc3O2)c(OC)c1 (stereo unspecified) | 7%
Clc1ccc(COc2ccccn2)c(Cl)c1 | 11%
COC(=O)c1ccc(NC(=O)CN(Cc2ccccc2)S(=O)(=O)c2ccc(Cl)cc2)cc1 | -15%
COc1ccc(-c2csc(NC(=O)CSc3nc(C)cs3)n2)cc1 | -10%
O=C(NC(=S)Nc1cccc2cc(O)ccc12)c1ccco1 | 11%
CCN(CCCNC(=O)CCCOc1cc(=O)n(C)c2ccccc12)Cc1ccccc1 | 2%
Cc1cccc(CNC(=O)c2cnc3c(-c4cccc(C)c4)c(C)nn3c2C)c1 | 0%
O=C(c1ccc2nc(Cc3cccc(Cl)c3)oc2c1)N1CCC(CO)CC1 | 0%
CC(C)OCCCNC(=O)C(C)Oc1ccccc1 (stereo unspecified) | -14%
Cc1ccc(-n2c(N)c(C#N)c(-c3ccccc3)c(C#N)c2=O)cc1 | -20%
CN(C)CC1CCCCC1OC(=O)c1ccc(S(=O)(=O)N(C)c2ccccc2)cc1 (stereo unspecified) | 6%
O=C(COc1ncnc2ccc(Br)cc12)N1CCOCC1 | 11%
FC(F)(F)c1ccccc1-c1cc(NCc2ccccc2)ncn1 | ?
Oc1ccc2c(c1)OC(c1ccc(O)c(O)c1)C(O)C2 (stereo unspecified) | 16%
COc1ccccc1NC(=O)CSc1nc2ccccc2n1C(C)=O | -5%
CC1(C(=O)N/N=C/c2ccc([N+](=O)[O-])o2)CC1(Br)Br (stereo unspecified) | -16%
COCCNC(=O)C(C)Oc1ccc(Cl)cc1Cl (stereo unspecified) | 12%
Cc1cccc(N2N=C(C(=O)N3CC(=O)Nc4ccccc43)CCC2=O)c1 | 10%
Nc1nc2ccccc2n1C(=O)c1ccc(F)cc1 | ?
Cc1cc(Cn2nnnc2-c2ccncc2)cc(C)c1O | 4%
Cc1ccc(C(=O)NCC(=O)OCC(=O)N2CCCc3ccccc32)cc1 | 1%
Cc1cc2ccccc2c(=O)n1CC(=O)NCC(=O)N1CCN(c2ccccc2)CC1 | 11%
O=C(Nc1ccc(Oc2cccnc2)cc1)c1ccc([N+](=O)[O-])cc1 | -15%
CCOC(=O)C1(Cc2ccccc2C)CCCN(C(=O)c2ccc3nccnc3c2)C1 (stereo unspecified) | -5%
CCN(CC)S(=O)(=O)c1ccc(C)c(N=C=S)c1 | 3%
Cc1cc(NC(=O)CCCN2C(=O)/C(=C/c3ccccc3Cl)SC2=S)no1 | -13%
